Screening results deposited in PubChem by National Center for Advancing Translational Sciences (NCATS).
TRPML1 agonist = activates the human TRPML1 channel; Q9GZU1; TRPML1-expressing cells, Ca2+ dye fluorescence, FDSS; host cell line not named in the record; reference of the full effect not given here; activation, % (no concentration beside the values); 410,000 tested, 0.12% active; AID 624414; in the data active = activation above about 50%; inconclusive = about 30% to 50%; inactive = below about 30%; further: 0% is about no effect; the text of the record puts the active cut at 80%
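Tetracycline-induced TRPML1-DL cells are seeded and incubated overnight before loading with a no-wash Ca2+ dye and quencher. Agonist activity is taken from the 110 s fluorescence read following compound pin-transfer on an FDSS, before EC80 54-4 challenge.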
CtBP-E1A blk = inhibitors of CtBP/E1A interaction; activity change, % (no concentration beside the values); AlphaScreen GST-E1A/His-CtBP binding, 1536-well; active compounds read low; control for the full effect not named in the record; AID 651724; 340,000 tested, 0.49% active; in the data active means activity change below about -65%; inconclusive means about -30% to -65%; inactive means above about -30%; further: on the % scale 0 is the no-effect control and ±100 the full control effect
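In 5 uL wells, 23 nL compound meets equimolar GST-E1A and His-CtBP (5X stock 125 nM each) for 2 h, 37 °C. Beads (5X, 50 ug/mL) then 1 h, 37 °C, dark.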
Six1-Eya2 blk = inhibitors of human Six1/Eya2 interaction; AlphaScreen GST-Six1/His-Eya2 binding, biochemical; active compounds read low; control for the full effect not named in the record; activity change, % (concentration not given with the values); 360,000 tested, 0.56% active; AID 651725; in the data active = activity change below about -65%; inconclusive = about -30% to -65%; inactive = above about -30%; further: on the % scale 0 is the no-effect control and ±100 the full control effect
Target sequence (O00167 whole entry, looked up): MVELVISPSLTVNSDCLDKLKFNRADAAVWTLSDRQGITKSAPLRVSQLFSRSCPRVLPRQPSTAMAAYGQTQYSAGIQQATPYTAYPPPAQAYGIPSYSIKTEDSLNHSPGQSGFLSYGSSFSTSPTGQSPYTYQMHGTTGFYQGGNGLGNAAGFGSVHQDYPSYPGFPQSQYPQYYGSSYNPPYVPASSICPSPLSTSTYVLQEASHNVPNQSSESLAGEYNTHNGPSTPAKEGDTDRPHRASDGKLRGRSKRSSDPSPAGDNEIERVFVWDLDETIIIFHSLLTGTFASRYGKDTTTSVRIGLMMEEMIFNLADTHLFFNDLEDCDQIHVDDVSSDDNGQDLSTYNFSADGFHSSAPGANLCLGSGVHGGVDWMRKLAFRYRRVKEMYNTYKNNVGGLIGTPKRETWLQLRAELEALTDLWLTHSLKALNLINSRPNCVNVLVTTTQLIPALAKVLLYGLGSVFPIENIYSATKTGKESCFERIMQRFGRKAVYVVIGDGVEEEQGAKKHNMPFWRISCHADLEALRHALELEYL
Target sequence (Q15475 whole entry, looked up): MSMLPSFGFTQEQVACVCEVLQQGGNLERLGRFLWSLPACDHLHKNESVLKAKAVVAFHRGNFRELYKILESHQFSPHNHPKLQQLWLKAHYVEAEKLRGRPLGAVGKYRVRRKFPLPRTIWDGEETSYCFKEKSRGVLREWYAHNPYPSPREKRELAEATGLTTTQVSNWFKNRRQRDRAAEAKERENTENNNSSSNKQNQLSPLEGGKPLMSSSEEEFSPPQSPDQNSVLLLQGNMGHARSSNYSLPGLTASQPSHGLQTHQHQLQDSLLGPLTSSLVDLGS
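Compounds are tested against tagged Six1 and Eya2 proteins bridged by glutathione donor and nickel acceptor beads; after a one-hour incubation at 37 °C without light, AlphaScreen emission is recorded.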
PINK1 expr mod = changes PINK1 expression | Potency, µM (top dose mostly 76.6 µM), for inactives: top-dose activation (PINK1 increase), usual class: activators | AID 624263 | 410,000 tested, 0.2% active | PINK1 immunofluorescence, high-content cytometry, 24 h; active = well fitted activation curve with a large enough effect; inconclusive = small, poorly fitted or top-dose-only effect; inactive = flat fitted curve, though single readings scatter; cell line not stated here;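 further: potency means the concentration at half of the fitted maximal effect; % of control where 0% means no effect; nearly all actives have a fitted effect of over 65% in size; a mitochondrial uncoupler was the plate control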
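Decision-based qHTS: stable cells, 24 h exposure to five compound concentrations, CCCP as control. Fixed cells stained for PINK1 plus nuclear, mitochondrial and cell markers, cytometer read.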
D2 potentiator = potentiates the human D2 dopamine receptor allosterically. DiscoveRx D2 beta-arrestin cells, luminescence, 90 min; 100% = 57 uM dopamine signal. P14416. AID 624464. potentiation, % (no concentration beside the values). 360,000 tested, 0.23% active; active = potentiation of 50% or more; inconclusive = 30% to 50%; inactive = 30% or less;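 further: compound concentration not given in the record; tested on top of an EC20 dose of dopamine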
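D2 cells co-treated with compound plus 50 nM dopamine (EC20) for 90 min at 37 deg C to detect potentiation. Beta-arrestin recruitment was read as enzyme-fragment luminescence after 1 h at ambient temperature. Full response was set by 57 uM dopamine.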
D2 ag = agonists of human D2 dopamine receptor (beta-arrestin) | P14416 | DiscoveRx PathHunter D2 beta-arrestin, luminescence, 90 min; 100% = 57 uM dopamine signal | activation, % (no concentration beside the values) | 360,000 tested, 0.084% active | AID 624465; in the data active = activation above about 40%; inconclusive = about 15% to 40%; inactive = below about 15%; further: compound concentration not given in the record; the text of the record calls up to 30% inactive
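DiscoveRx PathHunter D2 beta-arrestin cells (2,100/well) attached overnight, then compound-stimulated 90 min at 37 C in HBSS/10 mM HEPES/0.1% Tween-20 buffer; beta-galactosidase complementation read by luminescence after 1 h at ambient temperature. Dopamine 57 uM final (EC100) as control.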
* hit, by the source's call; ? = inconclusive; · = no result given; & = joins results of further samples; [ ] = dose if it differs, or a comment.

molecule	TRPML1 agonist	CtBP-E1A blk	Six1-Eya2 blk	PINK1 expr mod	D2 potentiator	D2 ag
COc1ccc(C2CC(=O)c3cnc(NC(=O)c4ccccc4OC)nc3C2)c(OC)c1 (stereo unspecified)	3.3	-8	-13	-1.0%	1	-2.0
CCC(=O)N/C(=N/c1nc(C)cc(C)n1)Nc1ccc(OC)cc1	0.6	9	3	-2.3%[38.3 µM]	-11	-3.8
COc1ccc(N/C(=C/[N+](=O)[O-])SC)cc1	-0.5	-7	3	5.7%	-4	-0.5
Cc1ccc(C=NCc2ccncc2)c(O)c1	0.2	6	3	·	3	-1.4
CN(C)C(=O)c1cccc(-c2cccc3nccn23)c1	-0.9	-23	5	-1.4%	-9	-3.4
O=C1CCCC(O)=C1N=Nc1c(Cl)cc(Cl)cc1Cl	1.7	6	-1	3.6%	-8	-0.3
CCCC(=O)Nc1cccc(-c2cn3cccnc3n2)c1	-0.2&-0.1	-25	-11	3.1%&0.7%	1	3.1
Cn1c(=O)c(C(=O)N2CCc3ccccc32)cc2cccnc21	-0.5	1	6	0.0%	1	-1.3
N#Cc1ccc(OCC(=O)NCCN2CCOCC2)cc1	-0.3	6	2	-2.1%	-5	0.8
COc1ccccc1NC(=O)COc1ccc(/C=N/NS(=O)(=O)c2ccc(C)cc2)cc1	-0.8	-3	1	-1.0%	15	-2.9

Additional records follow:
molecule	TRPML1 agonist	CtBP-E1A blk	Six1-Eya2 blk	PINK1 expr mod	D2 potentiator	D2 ag
NC(=O)[C@H]1CC2(CC(c3cccc(NC(=O)[C@H]4CCC(=O)N4)c3)=NO2)CN1C(=O)c1ccccc1 (stereo partly specified)	-0.4	5	1	1.7%	-9	-2.4
O=C(NC(=S)Nc1ccccn1)c1cc(-c2ccccc2)nc2ccccc12	1.3	?	-26	-2.3%	-15	-3.1
C[C@H](NC(=O)c1ccco1)C(=O)Nc1cc(S(=O)(=O)N2CCCC2)ccc1OCC(F)(F)F	0.5	5	0	3.2%	-2	0.7
Cc1ccc(-n2c(C)cc(C(=O)CSc3nnc4ccccn34)c2C)cc1	2.9	14	8	0.4%	1	1.5
N#CCSCC(=O)Nc1ccc(Cl)cc1	-0.4	41	27	4.2%[38.3 µM]	-12	-1.6
O=C(NNC(=S)NC1CCCCC1)c1ccc2c(c1)OCO2	1.0	0	0	6.1%	-39	-9.3
Cc1cc(=O)c2c(C)ccc(C)c2[nH]1	2.8	·	2	-0.5%	-26	-3.4
Nc1nc(SCc2ccc([N+](=O)[O-])cc2)c2ncn(C3OC(CO)C(O)C3O)c2n1 (stereo unspecified)	-0.8	-9	6	2.4%	0	-5.8
CC(C)n1cc(CN2CCN(C)C(CCO)C2)c2ccccc21 (stereo unspecified)	·	·	-6	2.1%	-19	3.9
COc1ccc(/C=C(\NC(=O)c2ccccc2)C(=O)N/N=C/c2cccnc2)cc1	0.9	·	-2	-1.0%	-10	0.6

Going on with the list:
molecule	TRPML1 agonist	CtBP-E1A blk	Six1-Eya2 blk	PINK1 expr mod	D2 potentiator	D2 ag
CN(CCC1CCOCC1)C(=O)CC1C(=O)NCCN1Cc1ccccc1F (stereo unspecified)	0.1	12	0	0.4%	-3	-1.9
Cc1scc(C(=O)O)c1-c1c(C(=O)O)csc1C	0.1	8	1	1.5%	18	-0.3
CCCCN(C)c1c(C)nc2ccc(C(=O)Nc3ccc(OC)c(OC)c3)cn12	4.3	-17	-21	2.9%	-6	5.3
c1ccc(Nc2ncnc3sccc23)cc1	0.2	-12	8	0.7%	-2	1.5
c1ccc2cc(OCCOCCOc3ccc4ccccc4c3)ccc2c1	-0.8	9	3	11%	1	1.3
O=C(O)/C=C/C(=O)Nc1nccs1	-0.5	0	-11	1.5%	-5	-0.3
O=C(c1c(F)c(F)c(F)c(F)c1F)N(Cc1ccccc1)Cc1ccccc1	0.9	14	36	-1.1%	-8	-0.6
C/C=C/C(=O)Nc1nnc(C2CCCCC2)s1	-0.2	9	1	4.3%	1	-3.4
CCC1CCCCN1CCCNC(=O)CCC(=O)N1CC(C)Oc2ccccc21 (stereo unspecified)	0.5	-18	-7	0.1%	-7	-7.0
COc1ccc(NC(=O)CSc2nnc(-c3ccccn3)n2-c2ccccc2)cc1OC	-0.5	-24	?	-3.5%[38.3 µM]	-10	-1.7

Next part:
molecule	TRPML1 agonist	CtBP-E1A blk	Six1-Eya2 blk	PINK1 expr mod	D2 potentiator	D2 ag
CC(=O)Nc1ccc(S(=O)(=O)N(C)CC(=O)OC(C)C(=O)N(C)Cc2ccccc2)cc1 (stereo unspecified)	-0.3	3	0	2.2%	1	0.3
CC(C)C(C(=O)N1CCN(Cc2ccccc2)CC1)c1ccccc1 (stereo unspecified)	-1.5	1	-5	1.2%	-7	-3.0
COCCCN1C(=O)C(CC(=O)NCC2CCCCC2)CC(C(=O)N(C(C)C)C(C)C)=C1C (stereo unspecified)	-0.5	0	24	0.2%	-1	3.0
CC1(c2ccc(Cl)cc2)NC(=O)N(CC(=O)NCc2ccc(F)cc2)C1=O (stereo unspecified)	0.6	0	-2	3.1%	-7	-4.3
COc1ccc(C(=O)COC(=O)c2sc(C)nc2C)cc1Cl	-0.1	·	2	-0.6%	-1	-2.0
O=C(N/N=C/c1cccnc1)C(=O)N1CCCCCC1	-0.3	7	5	0.2%	-5	-5.0
C=CCn1c(Cc2csc(N)n2)nnc1SCc1ccc(C(=O)OC)cc1	1.4	-9	-12	-0.7%[38.3 µM]	3	2.0
CC(=O)c1c(O)cc(=O)n(-c2ccccc2)c1-c1ccc(Cl)cc1	0.1	-27	3	-1.4%	-7	-6.7
O=C(COC(=O)/C=C/c1ccccc1)NCc1ccc2c(c1)OCO2	0.4	-20	4	1.8%	-2	-4.9
CCCCC(=O)NC1=NC(=O)C(C)(C)S1	-0.2	40	0	0.3%[38.3 µM]	8	-2.0

Next section
molecule	TRPML1 agonist	CtBP-E1A blk	Six1-Eya2 blk	PINK1 expr mod	D2 potentiator	D2 ag
S=c1[nH]nc(-c2cccnc2)n1/N=C/c1ccco1	-0.2	0	8	1.6%	-7	2.7
COc1ccc(S(=O)(=O)N2c3ccccc3NC(=O)CC2C)cc1 (stereo unspecified)	-0.3	0	-16	0.6%	-16	-4.6
CCN1CCN(C(c2cccs2)C(C)NC(=S)Nc2cccc(C)c2C)CC1 (stereo unspecified)	0.1	3	6	1.2%	-3	-0.8
COc1ccc(N2C[C@H](C)[C@@H](CC(=O)Nc3ccccc3)C2=O)cc1	·	1	3	0.1%	·	-0.8
COC(=O)c1ccc(C(=O)OC)c(NC(=O)Oc2ccccc2)c1	-0.8	6	-2	4.6%	-22	-3.2
O=C(CN1C(=O)CC(c2ccco2)Sc2ccccc21)NCC1CCCO1 (stereo unspecified)	0.9	1	-2	2.3%[38.3 µM]	-10	-2.5
CC(C)(C)OC(=O)CNC(=O)c1nc[nH]c1C(=O)NCc1ccc(CNC(=O)OC(C)(C)C)cc1	1.3	-6	-6	0.8%	-9	-1.0
CCOC(=O)CNC(=O)CSc1nc(-c2ccc(C)cc2)ns1	-0.3	-18	-2	0.1%	5	-2.3
CCC(=O)Nc1ccc(C(=O)OCC(=O)c2cccs2)cc1	-0.9	19	1	1.8%	-6	-2.2
CNc1cncc(-c2cccc(C(=O)N3CCOCC3)c2)n1	-0.2	2	2	1.9%	-3	-3.3

(list continues)
molecule	TRPML1 agonist	CtBP-E1A blk	Six1-Eya2 blk	PINK1 expr mod	D2 potentiator	D2 ag
CN=c1scc(C)n1/N=C/c1cc(Br)c(O)c(OC)c1	-1.7	0	-6	2.4%	5	0.8
CC(C)(C)OC(=O)C[C@H]1C/C=C\C[C@H](CC(=O)NCCO)C(=O)N[C@@H](c2ccccc2)COC1=O	0.2	·	4	0.2%	-3	-2.5
O=C(CN1CC(=O)Nc2ccccc21)Nc1ccc(F)c(F)c1	-0.8	-8	-6	-0.4%	-7	-3.1
O=C(Cc1ccsc1)NNC(=O)c1cccc(Cl)c1	0.3	-3	0	-0.1%	-14	-1.5
O=C(NC(Cc1ccccc1)C(=O)O)/C(=C\c1ccccc1)NC(=O)c1ccco1 (stereo unspecified)	-0.4	-27	-1	2.8%	-1	-3.8
CCOC(=O)N1CCC(N2CCN(Cc3ccccc3)C(CCO)C2)CC1 (stereo unspecified)	-0.4	-2	-7	0.2%	-2	?
CC1CCN(c2nc(-c3ccccc3O)nc3ccccc23)CC1	-0.4	7	-1	·	-10	-0.6
Cc1ccc(NC(=O)COC(=O)COc2ccc(Cl)cc2)c([N+](=O)[O-])c1	2.0	-4	7	0.0%	25	-3.3
CCOc1ccc(OCCC(=O)N2CCN(S(=O)(=O)c3cccc(F)c3)CC2)cc1	-0.5	9	-8	0.0%	-23	-6.3
COc1ccc(OCC(=O)N(C)Cc2ccccc2)cc1	-0.7	2	0	-1.3%	-8	-0.6

Sorted by number of heavy atoms (ascending): some entries from above
molecule	TRPML1 agonist	CtBP-E1A blk	Six1-Eya2 blk	PINK1 expr mod	D2 potentiator	D2 ag
O=C(Cc1ccsc1)NNC(=O)c1cccc(Cl)c1	0.3	-3	0	-0.1%	-14	-1.5
COc1ccc(OCC(=O)N(C)Cc2ccccc2)cc1	-0.7	2	0	-1.3%	-8	-0.6
CCOC(=O)N1CCC(N2CCN(Cc3ccccc3)C(CCO)C2)CC1 (stereo unspecified)	-0.4	-2	-7	0.2%	-2	?
O=C(NC(Cc1ccccc1)C(=O)O)/C(=C\c1ccccc1)NC(=O)c1ccco1 (stereo unspecified)	-0.4	-27	-1	2.8%	-1	-3.8

Additional entries
molecule	TRPML1 agonist	CtBP-E1A blk	Six1-Eya2 blk	PINK1 expr mod	D2 potentiator	D2 ag
Cc1cc(C)nc(OC(C(=O)O)C(OCCc2ccccc2)(c2ccc(F)cc2)c2ccc(F)cc2)n1 (stereo unspecified)	-0.5	1	0	2.4%	0	-0.9
CCOC(=O)[C@H]1[C@H]2COc3ccc(Br)cc3[C@@H]2N2C(=O)CN(Cc3ccco3)C(=O)[C@@]12C	-0.6	-6	-12	0.6%	2	2.1
O=C(CCc1nnc2ccc(NCc3ccco3)nn12)Nc1ccc(F)cc1F	3.1	·	-9	6.5%	-3	4.0
O=C(NCc1ccco1)c1cc2n(n1)C(C(F)(F)F)CC(c1ccc(F)cc1)N2 (stereo unspecified)	1.6	4	2	-2.3%[38.3 µM]	0	-0.1
O=C(CCCCC(=O)NN=Cc1ccc2c(c1)CCC2)NN=Cc1ccc2c(c1)CCC2	1.0	4	0	1.7%	-8	-3.7
COc1ccc(-c2nc(CS(=O)(=O)CC(=O)Nc3cccc(C(C)=O)c3)c(C)o2)cc1	-0.3	1	-3	0.0%	-8	-2.4
Cc1ccc(C(=O)Nc2ccc(F)cc2)o1	1.2	3	-5	-0.6%	-11	-2.0
CN1CCN(CCC2Oc3cc([N+](=O)[O-])ccc3NC2=O)CC1 (stereo unspecified)	-0.2	15	9	-2.5%	-5	-0.9
O=C(Nc1ccccc1)c1ccc(-c2ccc([N+](=O)[O-])cc2)o1	0.2	?	-15	8.9%	-5	-2.8
CN(O)C(=S)c1ccccc1	1.4	10	-27	13%	-26	-4.9
CCc1nnc(NC(=O)c2ccc(-c3ccc(C(C)=O)cc3)o2)s1	2.6	-21	0	-0.4%	-2	0.4
Cc1nc2c(OCc3ccccc3)cccn2c1N(C)C(=O)C1CCCCC1	-0.4	-6	3	3.8%	-11	-3.1
CS(=O)(=O)c1ccc(Cl)c(NC(=O)CCNC(=O)c2ccco2)c1	-0.7	3	6	8.7%	3	2.5
